Bioassay records: PubChem BioAssay, National Center for Advancing Translational Sciences (NCATS)
Vaccinia mCherry – qHTS for Stage-Specific Inhibitors of Vaccinia Orthopoxvirus: mCherry Reporter Primary qHTS. Vaccinia virus mCherry reporter infection, fluorescence; about a quarter of the inactives have no number. Potency, µM (highest dose often 36.5 µM), for inactives: top-dose activity change, negative = inhibition, hits mostly inhibitors. hit rate 0.63% among 310,000; active = well fitted inhibition curve with a large enough effect; inconclusive = small, poorly fitted or top-dose-only effect; inactive = no such curve, though single readings can be large or run the other way; tested in A549 cells; note: nearly all actives have a fitted effect of over 35% in size; inactives centre near -10
VACV Venus inh – qHTS for Stage-Specific Inhibitors of Vaccinia Orthopoxvirus: Venus Reporter Primary qHTS; Vaccinia virus Venus reporter expression, fluorescence; hit rate 0.46% among 330,000; AID 720580, 2013; Potency, µM (doses to about 36.5 µM), for inactives: at the highest dose activity change, negative = inhibition, most hits filed as inhibitors; active means well fitted inhibition curve with a large enough effect; inconclusive means small, poorly fitted or top-dose-only effect; inactive means no such curve, though single readings can be large or run the other way; tested in A549 cells; note: nearly all actives have a fitted effect of over 30% in size; inactives centre near -10
* marks the source's active call; other numbers are inactive results; i = inactive; ? = inconclusive; . = no result given; & = joins results of further samples; [ ] = another dose, or the depositor's remark. % is set by controls: 0 for no effect and ±100 for the full control effect; potency is the fitted concentration of half-maximal effect.

SMILES	Vaccinia mCherry	VACV Venus inh
CCOC(=O)c1[nH]c2ccccc2c1NC(=O)c1cc(OC)c(OC)c(OC)c1	-21%	-3%
COC(=O)CC(c1ccc(C#N)cc1)n1c(C)ccc1C (configuration not stated)	i	-5%
Cc1cc(C)n2c(Nc3ccc4c(c3)OCCO4)c(-c3cc4ccccc4o3)nc2n1	-4%	-10%
CCc1ccc(CN(C(=O)c2oc3ccccc3c2C)C2CCS(=O)(=O)C2)cc1 (configuration not stated)	-20%	?
COc1cc(C(c2sc3ncnn3c2O)N2CCN(c3ccccc3F)CC2)cc(OC)c1OC (configuration not stated)	-15%	-2%
O=C(/C=C/[C@H]1O[C@@H](n2ccc(=O)[nH]c2=O)[C@H](O)[C@@H]1O)NCCc1c[nH]c2ccccc12	5%	1%
Cc1cccc(N2CCN(C(=O)c3cccc(S(=O)(=O)N4CCCCC4)c3)CC2)c1C	-25%	-17%
CCCCOc1ccc(-c2nc(/C=N/c3nccs3)c(O)o2)cc1	-13%	-11%
O=C(CNC(=O)c1cccs1)OCC(=O)c1ccc(Cl)cc1	i	-3%
CC(C)(CNCC(O)c1ccccc1)N1CCOCC1 (configuration not stated)	.	-5%
CCOC(=O)c1cc(-c2ccccc2)n(CCCC(=O)Nc2ccc(CC)cc2)c1C	?	?
Cc1cccc(N2CCN(C(=O)C34CC5CC(CC(C5)C3)C4)CC2)c1C	i	-15%
COc1ccc(CCNc2ncnc3onc(-c4ccc(Cl)cc4)c23)c(OC)c1	-9%	-7%
Cc1cc(C)nc(SCC2COc3ccccc3O2)n1 (configuration not stated)	.	-3%
COc1ccc(C(C)(NC(C)=O)c2nc(-c3ccc(F)c(Cl)c3)cs2)cc1 (configuration not stated)	?	-30%
COc1ccccc1Nc1c2c(nc3ccc(NC(=O)c4ccccc4F)cc13)CCCC2	?	?
CC(=O)Nc1cccc(O)c1	-20%&-1%	?
O=C(Nc1ccccc1C1CC1)c1cccs1	.	-6%
O=C(Nc1ccc2c(c1)OCO2)C1CCN(S(=O)(=O)Cc2ccccc2)CC1	-12%	-17%
Cc1c(-c2ccccc2)nc2ccccc2c1C(=O)NCc1cccs1	-5%	-7%
Cc1c(Br)cccc1NC(=O)C1(C)CCN1Cc1ccc(OC(C)C)cc1 (configuration not stated)	?	8%
O=C(CCc1nnc(Cc2ccc(-c3ccccc3)cc2)o1)NCC1CC1	?	-18%
Cc1nc(CN2C(=O)C3(CCC3)ON=C2c2cccc(Cl)c2)cs1	i	-2%
CCc1nc2c(OC)cccn2c1N(C)C(=O)c1ccccc1F	3%	2%
Cc1ccc(C)n1-c1nnc(N2CCCC(C(=O)NCc3cccc(Br)c3)C2)s1 (configuration not stated)	-14%	-3%
Cc1cccc(C)c1NC(=O)CS(=O)CC(=O)Nc1ccc(N2CCOCC2)cc1 (configuration not stated)	-19%	-5%
CCC(=O)n1nc(-c2ccc(OC)cc2)nc1NCc1cccs1	i	-15%
CCOc1ccc(NC(=O)CN(C)C(=O)CCCOc2ccc(Br)cc2)cc1OCC	-14%	-25%
Cc1csc(NC(=O)CSc2nc3ccccc3c3c2CCCC3)n1	-15%	-2%
Cc1ccc(CN2C(=O)C(=O)c3cc(C)ccc32)cc1	-28%	-27%
Cc1cccn(Cc2c(F)cccc2Cl)c1=O	-7%	-6%
COc1ccc(NC(=O)COC(=O)c2ccc(S(=O)(=O)N3CC(C)CC(C)C3)cc2)cc1OC (configuration not stated)	-16%	-12%
CC(=O)Nc1ccc(C2Sc3ccccc3NC3=C2C(=O)c2ccccc23)cc1 (configuration not stated)	-20%	-20%
CN1CCN(C(CNC(=O)C(=O)Nc2ccccc2)c2ccc3c(c2)OCO3)CC1 (configuration not stated)	-4%	-6%
COc1cccc(C(=O)Nc2c(C)n[nH]c2C)c1	i	-5%
CCOc1ccccc1C(=O)NC(C(=O)OCC(=O)NNC(=O)c1cccs1)C(C)C (configuration not stated)	-11%	-4%
O=c1cc2c(c(-c3ccccc3)n1Cc1ccccc1)[C@@H](CCO)NC2	i	-12%
Cc1ccc(NC(=O)C2CCCN(c3ncnc4c3nc3n4CCCCC3)C2)cc1F (configuration not stated)	-14%	-10%
Cc1ccc(-c2csc3ncnc(N4CCN(S(=O)(=O)c5ccc(C#N)cc5)CC4)c23)cc1	-27%	-19%
C[C@@H]1C[C@H]2[C@@H]3CCC4=CC(=O)C=C[C@]4(C)[C@@]3(F)[C@@H](O)C[C@]2(C)[C@@]1(O)C(=O)COP(=O)(O)O	-11%&-1%	-10%&-11%
Cc1ccc(/C=C/C(=O)OCC(=O)NCCc2ccc(S(N)(=O)=O)cc2)o1	i	-14%
Cc1nc(N(C)C2CCCCC2)c2nnn(Cc3ccc(F)cc3)c2n1	-4%	-17%
O=C(Cn1cc(SCc2ccc(Br)cc2)c2ccccc21)N1CCCCC1	-17%	-22%
CCOc1ccc(NC(=O)CN2CCN(CC(=O)Nc3ccc(Cl)c(C(F)(F)F)c3)CC2)cc1	-24%	?
CC(C)[C@H](NC(N)=O)C(=O)Nc1ccc(F)c(Cl)c1	-16%	4%
O=C(CSc1ncc(S(=O)(=O)c2ccc(Cl)cc2)c(=O)[nH]1)Nc1cccc(C(F)(F)F)c1	2%	2%
CCOC(=O)c1cc(C)sc1NC(=O)C(c1ccccc1)c1ccccc1	-6%	-24%
Cc1ccc(Cn2c(SCC(=O)NCC3CCCO3)nc3ccsc3c2=O)cc1 (configuration not stated)	-8%	-3%
Cc1cc2c([nH]c3ccccc32)c(C)n1	-24%	0%
CC(C)(C)c1ccc(-n2ncc3c2CCCC3NC(=O)c2csnn2)cc1 (configuration not stated)	-12%	-11%
(continued)
SMILES	Vaccinia mCherry	VACV Venus inh
CCCN(CC(=O)Nc1cc(C)on1)CC(=O)Nc1ccccc1C	-19%	-3%
COC(=O)c1cc(-c2c(-c3ccc4c(c3)OCO4)noc2-c2ccsc2)cc([N+](=O)[O-])c1	-17%	-15%&-6%
Cc1csc(=O)n1CCC(=O)OCC(=O)Nc1cc([N+](=O)[O-])ccc1Cl	i	-9%
O=C(CSCc1ccccc1)Nc1cccc(C(=O)Nc2ccc(C(=O)O)cc2)c1	-7%	-8%
O=C1NC2(CCCCCC2)C(=O)N1Cc1ccccc1	i	-28%
Cc1cccc(OCc2nnc(SCC(=O)Nc3cccc(C(=O)N4CCOCC4)c3)n2C)c1	-6%	-16%
CCCCCN(C(=O)COC(=O)COc1c(C)cc(C)cc1C)c1c(N)n(CCCC)c(=O)[nH]c1=O	-5%	-8%
CC(C)(C)NC(=O)NC(=O)CN1CCc2ccccc21	i	-5%
CCCc1noc(-c2cccc([N+](=O)[O-])c2)n1	-2%	7%
COC(/C=C/Nc1ccc(OC)cc1)=C(C#N)C#N	i	1%
CCOc1ccc(-n2cc(C(=O)NCCOC)c3cc(OC)c(OC)cc3c2=O)cc1	-17%	-2%
COc1ccc(F)cc1S(=O)(=O)NCC(c1ccc2c(c1)OCO2)N1CCN(C)CC1 (configuration not stated)	-9%	-6%
Cc1nc(CS(=O)(=O)c2ccccc2)cc(N2CCN(c3ccccc3F)CC2)n1	-2%	1%
C[N+]12CCC(CC1)C(C(O)(c1cccc(Cl)c1)c1cccc(Cl)c1)C2 (configuration not stated)	i	-12%
CCCCN(Cc1ccccc1)C1CCN(Cc2ccccc2)CC1	?	-15%
O=C1C(Nc2ccc(O)cc2)=C/C(=N/S(=O)(=O)c2cccs2)c2ccccc21	?	2µM*
O=c1c2c(-c3cccs3)csc2ncn1-c1ccc(Br)cc1	.	-15%
CCC(=NCCc1c(C)[nH]c2ccc(OC(F)(F)F)cc12)C1=C(O)CC(c2ccccc2)CC1=O (configuration not stated)	?	?
O=C(NC1CCCCC1)c1ccc2ccccc2c1	i	-17%
Cc1cccc(C)c1NC(=O)COC(=O)c1cccc2c1C(=O)c1ccccc1C2=O	-21%	-2%
CC(C)(C)N(CC#CCC1(O)c2ccccc2-c2ccccc21)CCO	-5%	-5%
CN(C)S(=O)(=O)c1ccc(C(=O)Nc2ccc(Cl)cc2)cc1	-18%	?
COc1ccc(NCc2nc3ccccc3n2CCOc2ccccc2C)cc1	-28%	?
CC(C)c1ccc(NC(=O)CS(=O)(=O)c2cccc3nsnc23)cc1	-12%	-8%
Cc1cc(=O)c(C(=O)O)nn1-c1ccccc1Cl	-9%	1%
COc1cc(NC(=O)c2cccc(Br)c2)nc(OC)n1	i	-11%
COC(=O)c1cc(NC2c3ccccc3C(=O)N2Cc2ccco2)cc(C(=O)OC)c1 (configuration not stated)	-10%	-4%
O=C(NC(NC(=S)Nc1ccccc1Cl)C(Cl)(Cl)Cl)c1cccc(Cl)c1 (configuration not stated)	13µM*	?
O=C(NCCc1ccccc1)C1CCN(C2CCN(C(=O)CC3=CCCCC3)CC2)CC1	-23%	-15%
O=C(NCCc1ccccc1)c1ccc(CS(=O)(=O)Cc2ccccc2F)o1	-12%	-11%
COc1ccc(OC)c(NC(=O)c2cc3ccccc3cc2OC)c1	i	-31%
Cc1nc(NC2CCCC2)sc1C(=O)N(C)C	.	-9%
COc1ccccc1N1CCN(C(=O)CSc2nc3ccccc3nc2Cc2ccc(F)cc2)CC1	-13%	-9%
CC(=O)OCc1cnc(C)c2oc(=O)c(C(=O)Nc3cccc(F)c3)cc12	-7%	-2%
CC(=O)C[C@@H](O)CC(=O)[C@@H]1OC(=O)CCCCCCCc2ccccc21	i	-20%
CC(C)Cc1ccc(-c2cc3nc(NCC4CC4)ccn3n2)cc1	27%	-7%
CC1=C(C(=O)N(C(C)C)C(C)C)CC(CC(=O)NCc2ccco2)C(=O)N1Cc1ccccc1 (configuration not stated)	18%	-25%
c1ccc(COc2ccc(CNCc3cccnc3)cc2)cc1	-7%	-5%
CC(=O)Nc1ccc(-c2csc(NC(=O)CCCc3cccs3)n2)cc1	-16%	-18%
Cc1cccc2sc(NC(=O)c3ccc(OCC4CCCO4)cc3)nc12 (configuration not stated)	-2%	-9%
COCc1ccc(-c2ccc3c(c2)c(C#Cc2ccsc2)c(-c2cc(OC)cc(OC)c2)n3C)cc1	i	-7%
COc1ccc(-c2ncncc2-c2csc(C)n2)c(O)c1OC	-9%	-4%
CC[N+](C)(CC)CCOC(=O)C1c2ccccc2Oc2ccccc21	-14%	-16%
C[C@@H]1CN([C@@H](C)CO)C(=O)CCCn2nncc2CO[C@@H]1CN(C)C(=O)OCc1ccccc1	i	-9%
COc1ccc(NC(=O)CS(=O)CC(=O)Nc2cccc3cccnc23)cc1 (configuration not stated)	-19%	-6%
N#CC1(NC(=O)CSc2nnc(-c3ccccc3F)o2)CCCCC1	-9%	-1%
O=C(CN1C(=O)NC2(CCc3ccccc32)C1=O)NCc1cccc(C(F)(F)F)c1 (configuration not stated)	i	-8%
CCOC(=O)c1noc2ncn(Cc3cccc(C#N)c3)c(=O)c12	-12%	-5%[7.34 µM]
CN(C)C(CNC(=O)c1sc2ccccc2c1Cl)c1ccco1 (configuration not stated)	-11%	-7%
CCCOc1ccc(N2C(=O)CC(N(CCc3ccc(OC)c(OC)c3)C(=S)Nc3ccccc3)C2=O)cc1 (configuration not stated)	i	?
Next section.
SMILES	Vaccinia mCherry	VACV Venus inh
Cc1onc(-c2ccccc2)c1C(=O)N1CC(C)OC(C)C1 (configuration not stated)	-5%	1%
CCc1ccccc1NC(=O)CSc1ccsc1[N+](=O)[O-]	i	-7%
CCc1nnc(NC(=O)C2=NN(C3CCS(=O)(=O)C3)C(=O)CC2)s1 (configuration not stated)	0%	-11%
CCc1ccccc1NS(=O)(=O)c1ccc2[nH]cc(C(=O)N(CC(C)C)CC(C)C)c(=O)c2c1	-22%	-14%
CC1(C)CC(=O)C(C=Nc2ccc3cn[nH]c3c2)=C(O)C1	i	-14%
CCS(=O)(=O)Nc1cccc(-c2cc(-c3ccccc3)c3cc(C)ccc3n2)c1	i	?
CC1CN(C(=O)COC(=O)Cc2c(Cl)cccc2Cl)CC(C)O1 (configuration not stated)	-13%	-16%
Cc1nc(Nc2cccc(C(C)O)c2)c2nnn(Cc3ccccc3F)c2n1 (configuration not stated)	-19%	-17%
CCOc1ccc(-n2c(SCC(=O)Nc3cccc(Cl)c3)nc3c(oc4ccccc43)c2=O)cc1	-3%	-3%

An unsorted share of the library. Share with any hit: about 0.82%.
